Screening data deposited in PubChem by National Center for Advancing Translational Sciences (NCATS).
KAT2A inh – qHTS Assay for Inhibitors of GCN5L2; GCN5L2 HAT assay, ThioGlo1 CoA-SH fluorescence; AID 504327, 2011; Histone acetyltransferase KAT2A (Homo sapiens), Q92830; hit rate 0.21% among 390,000; Potency, µM (highest dose often 58.9 µM), without a hit: at the top dose activity change, negative = inhibition, usual class: inhibitors; active means well fitted inhibition curve with a large enough effect; inconclusive means small, poorly fitted or top-dose-only effect, or another doubt; inactive means no such curve, though single readings can be large or run the other way
Target sequence (Q92830 whole entry, looked up): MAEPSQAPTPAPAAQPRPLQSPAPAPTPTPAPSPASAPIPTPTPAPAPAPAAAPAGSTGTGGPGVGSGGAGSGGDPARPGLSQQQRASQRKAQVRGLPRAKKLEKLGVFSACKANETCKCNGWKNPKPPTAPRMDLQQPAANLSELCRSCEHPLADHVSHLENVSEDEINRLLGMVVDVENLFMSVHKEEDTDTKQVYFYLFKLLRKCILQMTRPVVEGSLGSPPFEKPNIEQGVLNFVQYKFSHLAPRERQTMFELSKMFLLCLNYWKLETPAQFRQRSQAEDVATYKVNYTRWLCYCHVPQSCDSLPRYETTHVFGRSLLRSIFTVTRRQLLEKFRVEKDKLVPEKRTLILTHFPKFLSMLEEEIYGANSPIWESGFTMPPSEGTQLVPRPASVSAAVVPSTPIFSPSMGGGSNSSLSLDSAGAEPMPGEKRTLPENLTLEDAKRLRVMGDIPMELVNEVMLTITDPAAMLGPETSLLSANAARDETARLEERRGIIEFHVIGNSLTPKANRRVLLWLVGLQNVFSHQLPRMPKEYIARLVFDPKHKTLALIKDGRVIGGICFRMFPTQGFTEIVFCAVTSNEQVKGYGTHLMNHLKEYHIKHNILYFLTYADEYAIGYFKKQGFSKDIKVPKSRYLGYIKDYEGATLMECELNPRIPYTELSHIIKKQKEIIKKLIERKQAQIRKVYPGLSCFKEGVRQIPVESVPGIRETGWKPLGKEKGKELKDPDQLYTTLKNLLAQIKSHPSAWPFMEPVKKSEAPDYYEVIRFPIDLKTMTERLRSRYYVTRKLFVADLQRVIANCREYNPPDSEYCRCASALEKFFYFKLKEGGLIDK
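Compounds, pin-transferred from DMSO stocks, meet 20nM GCN5L2 for 15 min before the reaction begins with H3(1-25) peptide (75uM) and acetyl-CoA (70uM). Thiol-reactive ThioGlo1 reports CoA release over 20 min at room temperature.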
Numbers without * were called inactive; u = inconclusive; & = joins results of further samples; [ ] = another dose, or the depositor's remark. On the % scale 0 is the no-effect control and ±100 the full control effect; potency means the concentration at half of the fitted maximal effect. These rows are one share of the data; most or all hits stand in other tables.

SMILES | KAT2A inh
O=CN1CCN(C2CC(=O)N(c3ccc4c(c3)OCO4)C2=O)CC1 (configuration not stated) | -5.5%
COC(=O)c1c(NC(=O)c2ccccc2C(=O)O)sc2c1CCCC2 | -6.1%
COc1ccc(/C=C2\SC(=N)N(c3ccc(F)cc3)C2=O)cc1 | -5.7%
Cc1ccccc1OCCC(=O)OCC(=O)Nc1cc(S(=O)(=O)N2CCOCC2)ccc1Cl | -4.1%
COc1ccccc1C(=O)Nc1ccc2c(c1)nc(CCNC(=O)c1ccccc1)n2C | -1.8%
Cc1ccc(C(=O)CSc2nc3c([nH]2)c(=O)n(C)c(=O)n3C)cc1 | -8.2%
O=C1c2cccnc2C(O)N1Cc1cccs1 (configuration not stated) | -0.2%
CC(Sc1nccn1C)C(=O)NC1(C#N)CCCCC1 (configuration not stated) | 1.2%
Cc1cccc(-n2nc3c([n+]2[O-])CCc2nonc2-3)c1C | 2.1%
Cc1cccnc1NC(=O)c1csnn1 | -1.9%
O=c1[nH]c(CSc2nc(-c3ccc(F)cc3)cs2)nc2ccccc12 | 0.9%
O=C(CCN1C(=O)/C(=C/c2cccc(Br)c2)SC1=S)NNC(=O)c1cccnc1 | -5.0%
COc1ccc(C2C(C(C)=O)=C(O)C(=O)N2CCCn2ccnc2)cc1OC (configuration not stated) | 1.1%
O=C(COC(=O)c1ccc(F)c(S(=O)(=O)N2CCOCC2)c1)NC1CCCCC1 | -0.4%
O=S(=O)(NCCc1csc2nc(-c3ccc(Cl)cc3)nn12)c1ccc(Oc2ccccc2)cc1 | 1.4%
O=C(NNc1nc2cc3c(cc2s1)OCCO3)c1ccccc1 | -0.9%
CCCCOc1cccc(C(=O)N(Cc2ccc(N(C)C)cc2)C2CCS(=O)(=O)C2)c1 (configuration not stated) | -3.6%
COc1cc2[nH]c(=O)n(CCC(=O)NCCCN3CCN(c4ccccc4F)CC3)c(=O)c2cc1OC | -6.8%
CCc1cc2c(=O)c(-c3nc4ccccc4n3C)c(C)oc2c(CN(CC)CC)c1O | -20.1%
COC(=O)Nc1ccc2c(c1)N(C(=O)CCN1CCN3CCCC3C1)c1ccccc1CC2 (configuration not stated) | -23.6%&-7.1%
COc1ccc(CNC(=O)C/C(C)=N/NC(=O)C23CC4CC(CC(C4)C2)C3)cc1 | -2.9%
CCN(CC)CCNC(=O)c1ccc(NC(=O)Cc2ccsc2)cc1 | 1.4%
O=C(c1cn(-c2ccccc2)nc1-c1cccs1)N1CCN(c2ccc(F)cc2)CC1 | -14.5%
Cc1ccc(-c2ncc(Cl)cc2-c2ccc(S(C)(=O)=O)cc2)cn1 | 1.7%
Cc1ccc(C(=O)N2c3ccc(C)cc3C(C)(c3ccccc3)CC2(C)C)cc1 (configuration not stated) | -9.5%
SMILES | KAT2A inh
Cn1cc(CN2CCN(c3ncccn3)CC2)c(-c2cccc(Cl)c2)n1 | -7.8%
Cc1nc(NS(=O)(=O)c2ccccc2C)c2c3c(sc2n1)CCC3 | -15.5%
Cc1ccccc1C(=O)NNC(=O)C1CCN(c2ncccn2)CC1 | -3.1%
CCN(CC)S(=O)(=O)c1cccc(NC(=O)c2ccc(C#N)cc2)c1 | 1.1%
Cc1ccccc1C(=O)Nc1ccnn1C1CCN(CCCc2ccccc2)CC1 | -2.5%
CCOC(=O)C1(Cc2ccccc2Cl)CCN(S(=O)(=O)N(C)C)CC1 | -2.0%
O=C(CN(Cc1ccco1)C(=O)c1cc(=O)[nH]c2ccccc12)Nc1ccccc1Br | -1.8%
COc1ccc(Cn2c(C(=O)O)c(CNCCc3ccco3)c3ccc(OC)cc32)cc1 | -8.0%
Cc1ccc(NC(=O)C(=O)c2cn(CC(=O)N3CCCCC3)c3ccccc23)cc1 | -6.6%
CCOC(=O)N1CCN(CCC(=O)Nc2ccc(OC(F)(F)F)cc2)CC1 | -0.6%
Cc1ccccc1Nc1nnc(C)c(=O)n1N | u
COc1ccc(CCNC(=O)COC(=O)COc2ccc(C#N)cc2)cc1 | -5.3%
COc1ccccc1OCC(=O)N1CCN(S(=O)(=O)c2ccc(Cl)cc2)CC1 | -0.1%
COc1ccc(N2CC(NC(=O)c3cc4ccccc4o3)CC2=O)cc1 (configuration not stated) | 0.4%
OC(COc1ccc2c(c1)OCO2)CN1CCCCC1 (configuration not stated) | -3.5%
NS(=O)(=O)c1ccc(CCNC(=O)c2cc(-c3ccccc3)nc3ccccc23)cc1 | -4.6%
Cc1nnsc1C(=O)N1CCCC(N2CCN(c3ccc(F)cc3)CC2)C1 (configuration not stated) | 0.3%
COc1ccc(CNC(=O)CCc2nc(-c3ccc(OC)cc3)no2)cc1 | -6.1%
CCCCC(CC)C(=O)Oc1ccc(O)c(C(C)(C)C)c1 (configuration not stated) | -20.7%
O=C(Nc1ccc(N2CCOCC2)c(Cl)c1)c1ccc([N+](=O)[O-])o1 | -1.5%
CC12CC3(C)CC(C)(C1)CC(C(=O)NC(=S)NC(C)(C)C)(C2)C3 | 0.6%
CCOc1ccc(C(O)Cc2nc3ccccc3n2C)cc1 (configuration not stated) | -11.4%
Cc1nonc1C1CCCN1C(=O)c1cc(COc2ccc(F)cc2F)on1 (configuration not stated) | -0.1%
COc1ccc(S(=O)(=O)N(C)C[C@H]2Oc3c(NC(=O)NC(C)C)cccc3C(=O)N([C@H](C)CO)C[C@@H]2C)cc1 | -3.2%
Cc1cccc(N2CCN(C(=O)C3CC(=O)N(c4ccc5c(c4)OCCO5)C3)CC2C)c1 (configuration not stated) | -6.4%

Structures from the list above containing a Cl atom (7):
SMILES | KAT2A inh
Cc1ccccc1OCCC(=O)OCC(=O)Nc1cc(S(=O)(=O)N2CCOCC2)ccc1Cl | -4.1%
O=S(=O)(NCCc1csc2nc(-c3ccc(Cl)cc3)nn12)c1ccc(Oc2ccccc2)cc1 | 1.4%
Cc1ccc(-c2ncc(Cl)cc2-c2ccc(S(C)(=O)=O)cc2)cn1 | 1.7%
Cn1cc(CN2CCN(c3ncccn3)CC2)c(-c2cccc(Cl)c2)n1 | -7.8%
CCOC(=O)C1(Cc2ccccc2Cl)CCN(S(=O)(=O)N(C)C)CC1 | -2.0%
COc1ccccc1OCC(=O)N1CCN(S(=O)(=O)c2ccc(Cl)cc2)CC1 | -0.1%
O=C(Nc1ccc(N2CCOCC2)c(Cl)c1)c1ccc([N+](=O)[O-])o1 | -1.5%

The listing continues:
SMILES | KAT2A inh
COc1ccc2c(=O)c(-c3ccccc3)c(C)oc2c1 | -12.3%
Cc1cccc(C)c1NC(=O)CN(C)C(=O)c1cccc(S(=O)(=O)N2CCN(c3ccccc3)CC2)c1 | -28.6%
CN1CCN(c2ccccc2NC(=O)c2ccc(N3CCOCC3)c([N+](=O)[O-])c2)CC1 | -1.5%
Cc1cccn2c(=O)c3cc(C(=O)NC4CCCC4)n(C)c3nc12 | -8.8%
CCCn1nnnc1NC(=O)COc1ccc(Br)cc1 | -3.4%
COc1ccc(NC(=O)c2cc(-c3cc(OC)c(OC)c(OC)c3)nc3ccccc23)cc1OC | -22.6%
COc1cc(Cl)c(C)cc1NC(=O)CN1C(=O)C2CCCCC2C1=O (configuration not stated) | -3.9%
CSc1nnc(C)c(=O)n1COC(=O)COc1ccc(F)cc1 | -7.1%
COc1ccc(C(=O)OCCCc2cc3ccccc3c(=O)o2)cc1 | -14.6%
COc1ccc(S(=O)(=O)N(C)CC(=O)NCCN2CCOCC2)cc1C | 1.3%
O=C(CCn1c(=O)c2ccccc2n(Cc2cc(=O)n3ccccc3n2)c1=O)NCc1ccco1 | -3.5%
O=C(COC(=O)Cc1ccc(F)cc1)Nc1cc(S(=O)(=O)N2CCOCC2)ccc1N1CCCC1 | 12.0%
O=C(C(Cl)c1ccccc1)N1CCOCC1 (configuration not stated) | 1.8%
COc1cc(OC)c(NC(=O)c2c3c(nc4ccccc24)C(=O)N(C2CCCCC2)C3)cc1Cl | 6.1%
O=C(CCCn1ncn2c(cc3occc32)c1=O)NCc1cccc(Cl)c1 | -10.5%
Cc1ccc2cc(CN(CCCO)S(=O)(=O)c3ccccc3F)c(=O)[nH]c2c1C | -2.8%
CCOc1ccc(-n2c(=O)c3c(C)c(C)sc3n(Cc3c(F)cccc3Cl)c2=O)cc1 | -1.2%
Cc1cc(N)n(-c2cc(C)c3ccccc3n2)n1 | -2.1%
CC(C)C[C@@H](CN1C(N)=NC[C@@H]1C)NC(=O)CC12CC3CC(CC(C3)C1)C2 | -1.4%
OCCNC(=S)Nc1cc(Cl)cc(Cl)c1 | -6.1%
COc1ccc(/C=C/C(=O)N2CCN(c3ccccc3)CC2)cc1S(=O)(=O)N1CCOCC1 | -0.7%
COc1cc(CNCc2ccccc2)cc(Cl)c1OC | 3.6%
Cc1cc2ccccc2n2c(SCC(=O)Nc3ccc(S(=O)(=O)N4CCCCC4)cc3)nnc12 | -2.4%
CC1CC(C)CN(CCCNC(=O)c2cc3c(s2)-c2ccccc2OC3)C1 (configuration not stated) | u
CCOC(=O)C(C)/C(C)=N/NC(=O)CCC(=O)Nc1cc(C)ccc1C (configuration not stated) | -1.0%
SMILES | KAT2A inh
CN(C)C(=O)CSc1nnc(Cc2ccc3c(c2)OCO3)o1 | -6.4%
CCC1SC2=NC(C)=C(C(=O)OCC(C)C)C(/C=C/c3ccccc3OC)N2C1=O (configuration not stated) | -12.7%
CCc1ccc(-n2nc(C)c3c(C)cc(=O)n(CC(=O)N4CCCc5ccccc54)c32)cc1 | -4.9%
CCOc1ccc(OCCSc2nnnn2C2CCCCC2)cc1 | -4.2%
Cc1cccc(C)c1NC(=O)CCc1nnc2ccc(N3CCCC3)nn12 | -0.4%
Cc1ccc(NC(=O)CCSc2nnc(C)s2)cc1 | 3.3%
O=C(NNC(=O)c1ccccc1-n1cccc1)c1ccc(F)cc1 | -7.6%
COc1ccccc1C(=O)Nc1nnc(S(=O)(=O)N2CCC(C)CC2)s1 | -7.6%
CCCCN(CC)CCCNC(=O)c1cn(CC(C)C)c(=O)c2c1c1ccccc1n2C | 3.0%&-0.4%
O=C(CCNC(=O)c1ccc(Br)o1)NC1CCCC1 | 1.0%
O=C(c1ccccc1)N1CCN(S(=O)(=O)N2CCCCC2)CC1 | -0.8%
CCOC(=O)c1cc(-c2ccccc2)n(CCC(=O)Nc2ccccc2CC)c1C | 0.3%
COC(=O)C1CN(C(=O)c2cccc(OC(F)F)c2)c2ccccc2O1 (configuration not stated) | 2.9%
COc1ccc(-c2nc3sc(CCNC(=O)C(=O)Nc4ccc(C)c(C)c4)c(C)n3n2)cc1 | -1.3%
O=C(COc1ccc(Br)cc1)Nc1ccc2c(c1)C(=O)NC2=O | -20.7%
CCOC(=O)CSc1nnc2c(n1)C1(C)CCC2C1(C)C (configuration not stated) | -2.8%
CC1=CC(C)(C)Nc2ccc(OC(=O)CN3C(=O)c4ccccc4C3=O)cc21 | -8.1%
CN(CC(=O)Nc1ccc(F)cc1F)S(=O)(=O)c1cccc2nsnc12 | -5.9%
COc1cc2c(Nc3ccc(NC(=O)c4ccccc4)cc3)ncnc2cc1OCCCN1CCOCC1 | -5.5%
CC(=O)Nc1ccc(S(=O)(=O)Oc2ccc(C(=S)N3CCCCC3)cc2)cc1 | -2.8%
CN(C)CCCNCCCNC(=O)/C=N/O | -6.4%[0.501 µM]
O=Cc1cn(CC(O)CN2CCCCC2)c2ccccc12 (configuration not stated) | -3.8%
COc1cccc(C(=O)NNC(=O)C(=O)Nc2ccc(C)c(Cl)c2)c1 | 0.4%
COc1ccc(C(=O)Nc2ccc(-c3nnc4n3CCCCC4)cc2)cc1 | -9.2%
CCCCc1ccc(NC(=O)c2ccc3c(c2)CCN3S(=O)(=O)c2ccccc2)cc1 | -8.3%

Of the compounds above, five contain bromine.
SMILES | KAT2A inh
O=C(CCN1C(=O)/C(=C/c2cccc(Br)c2)SC1=S)NNC(=O)c1cccnc1 | -5.0%
O=C(CN(Cc1ccco1)C(=O)c1cc(=O)[nH]c2ccccc12)Nc1ccccc1Br | -1.8%
CCCn1nnnc1NC(=O)COc1ccc(Br)cc1 | -3.4%
O=C(CCNC(=O)c1ccc(Br)o1)NC1CCCC1 | 1.0%
O=C(COc1ccc(Br)cc1)Nc1ccc2c(c1)C(=O)NC2=O | -20.7%

Going on with the list:
SMILES | KAT2A inh
Cc1cc(C(=O)CN2C(=O)NC3(CCCc4sccc43)C2=O)c(C)n1-c1ccc(Cl)cc1 (configuration not stated) | -17.1%
Cc1ccc(Cl)cc1N1CCN(C(=O)CSc2ccsc2[N+](=O)[O-])CC1 | -13.4%
Cc1nc(CN2CCCCC2)cc(=O)[nH]1 | -4.3%
Cc1cc(=O)[nH]c2nnc(SCc3ccc(Cl)cc3Cl)n12 | -1.4%
CCOc1ccccc1NC(=S)N1CCN(c2ccccc2)CC1 | -7.9%
COc1ccc2[nH]c(C)c(CCN(Cc3cccs3)C(=S)Nc3ccccc3OC)c2c1 | -14.2%
O=C(Nc1ccc(F)cc1F)c1c(C(F)(F)F)ccnc1Oc1ccccc1 | -4.1%
Cc1ccc(CNC(=O)CCc2cn(C)c3ccccc23)cc1 | -9.8%&1.9%
CCN1CCN(c2cc(C)c3cc(NC(=O)c4cccc(OC)c4)ccc3n2)CC1 | -4.6%
CC1=C(C(=O)Nc2ccccc2C(=O)NC2CCC(C)CC2)SCCO1 (configuration not stated) | 3.8%
COC(=O)c1[nH]c2ccc(C)cc2c1NC(=O)CCN1CCN(Cc2ccc3c(c2)OCO3)CC1 | -1.7%
Cn1nnnc1SCCCNCc1cccc(OCc2ccc(Cl)cc2)c1 | -6.3%
Cc1ccc(C2=NNC(=O)C(c3c[nH]c4ccccc34)C2)cc1 (configuration not stated) | -3.0%
Cc1ccc(-c2nc(COC(=O)c3c(C)noc3C)cs2)cc1 | -10.3%
Cc1ccc(C2=NS(=O)(=O)N(C)C(C(=O)Nc3cc(C)n(CC(=O)N4CCCCC4)n3)=C2)cc1 | -8.9%
CC(C)(C)NC(=O)c1cccc(NC(=O)CSc2ccc(Cl)cc2)c1 | -5.2%
